# HSD17B inhib = blocks hydroxysteroid 17-beta dehydrogenase activity; 75,000 tested, 7.6% active; Q99714; Potency, µM (series often up to 57.1 µM), for the others: top-dose activity change, negative = inhibition, most hits filed as inhibitors; recombinant HSD17B10, NADH fluorescence kinetic; many of its hits are not listed in these tables; active means well fitted inhibition curve with a large enough effect; inconclusive means small, poorly fitted or top-dose-only effect; inactive means no such curve, though single readings can be large or run the other way;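 further: the protocol describes HADH2 (HSD17B10) and not the HSD17B4 of the title; nearly all actives have a fitted effect of over 70% in size; most hits overshoot -100% by far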
#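 Activity followed as NADH fluorescence increase (ex 360, em 450 nm) every 30 seconds for 4 min, using final 90 uM beta-hydroxybutyryl CoA and 1 mM NAD+. Recombinant His-tagged enzyme, 20 nM, pH 9.0 Tris buffer, 15 min compound preincubation.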
# An asterisk follows results filed as active; i = inactive; ? = inconclusive; [ ] = another dose, or the depositor's remark. On the % scale 0 is the no-effect control and ±100 the full control effect; potency means the concentration at half of the fitted maximal effect.
compound	HSD17B inhib
COc1ccc(Cl)cc1NC(=O)CN1CCC(n2nnc3cc(F)ccc32)CC1	8%
O=S(=O)(c1ccccc1Cl)N1CCCC(c2nc(-c3cccnc3)no2)C1 (stereo not drawn)	-2%
CCC1SC2=NCN(c3ccccc3)CN2C1=O (stereo not drawn)	5%
COc1cc(NC(=O)c2ccc(-c3ccc(Br)cc3)o2)ccc1NC(=O)C(C)C	i
CSCC[C@H](NC(=O)Nc1ccc(C)cc1)C(=O)O	-6%
CCCC(c1nnnn1CCOC)N1CCN(c2cccc(OC)c2)CC1 (stereo not drawn)	-19%
O=C(c1ccncc1)N(Cc1cc2ccccc2[nH]c1=O)C1CCCCC1	-24%
CC(C)Nc1nnc(SCC(=O)Nc2ccc(F)cc2)s1	-3%
NC(=O)OCC(COC(N)=O)c1ccccc1	-6%
CC1CCCCC1NC(=O)C1Cc2ccccc2CN1S(C)(=O)=O (stereo not drawn)	5%
CC(C)c1nnc(SCc2ccc(CSc3nnc(C(C)C)n3N)cc2)n1N	-6%
N#CC1=C2SCN(c3ccccc3)CN2C(=O)CC1c1c(Cl)cccc1Cl (stereo not drawn)	32µM*
CCOc1ccc(C(=O)C2CCN(CC(=O)Nc3ccccc3N3CCOCC3)CC2)cc1	12%
Cn1c(=O)c2ncn(CC(=O)NCCC3=CCCCC3)c2n(C)c1=O	0%
O=c1[nH]c(-c2ccccc2O)nc2c1CCCC2	3.2µM*
COc1ccccc1-c1nc(C#N)c(NCc2ccc(F)cc2)o1	32µM*
CCOc1cccc(C(=O)Nc2cc(-c3nn4c(C)nnc4s3)ccc2C)c1	-2%
Cc1ccc(-c2nnc(SCC(=O)N3CCCC3)o2)cc1C	-14%
CCOC(=O)C1CCCN(C(=O)c2ccccc2NC(C)=O)C1 (stereo not drawn)	6%
Cn1c(N)c(N=Nc2ccc(S(N)(=O)=O)cc2)c(=O)n(C)c1=O	9%[11.4 µM]
COc1ccc(C2CC(=O)C=C(NCC3CCCO3)C2)cc1 (stereo not drawn)	-5%
C1=CC2CC1CC2CNCc1ccco1 (stereo not drawn)	4%
COc1ccc(NC(=O)CNS(=O)(=O)c2ccccc2)cc1Cl	7%
CCC(=O)c1ccc(OCCSc2ncccn2)cc1	0%
CSC1=NCCN1C(=O)COc1ccccc1	13%
Cc1cc(C(=O)Oc2ccccc2C(=O)O)c(C)o1	4%
COC(=O)CCCCCN1C(=O)NC(c2ccccc2)C(C(=O)OCc2ccccc2)=C1C (stereo not drawn)	4%
CCn1cc(C(=O)NCc2ccc(C)o2)c2cc(OC)c(OC)cc2c1=O	-12%
CCCC(=O)N1CCN(c2ccc(NC(=O)c3ccco3)cc2)CC1	14%
COc1ccc(C2c3c(oc4c(C)cc(C)cc4c3=O)C(=O)N2Cc2cccnc2)cc1OC (stereo not drawn)	10%
C=CC[C@@H]1C=C[C@H](Oc2ccc(C)cc2)[C@H](COC(=O)NCc2cccc3ccccc23)O1	-4%[11.4 µM]
CCn1c(=S)sc2nc(C)sc21	-11%
COC(=O)c1ccccc1NC(=O)Nc1cccnc1	32µM*
Cc1ccc(CCNC(=O)C2CCN(c3nn4c(=O)cc(C)nc4s3)CC2)cc1	-2%
NC(=O)[C@@H]1CCCN1Cc1ccc2c(c1)OCO2	9%[11.4 µM]
CCOC(=O)c1ccc(NC(=O)CNC(=O)C2CCCCC2)cc1	-11%
CCn1c(=O)c2cc(S(=O)(=O)NCCOc3ccccc3)ccc2n(CC)c1=O	-4%
Cc1cc(NC(=O)c2sc(Nc3cccc(C(F)(F)F)c3)nc2N)no1	-6%
Cn1cc(-c2nc3cncnc3n(-c3ccccc3)c2=O)c2ccccc21	6%
CS(=O)(=O)Nc1cccc(-c2ccc3ncnc(NCc4cccnc4)c3c2)c1	?
C=CCSc1nc2ccccc2[nH]1	0%
O=C(CCn1c(=O)sc2ccccc21)NCCC1=CCCCC1	4%
COc1ccc(COC(=O)N/N=C2/C[C@@H](O)[C@@H](O)[C@@H]3[C@H]4C(=O)N(c5ccc(F)cc5F)C(=O)[C@@H]4CC[C@H]23)cc1	3%[11.4 µM]
CNc1nc(NC)nc(-n2c(C(F)(F)F)nc3ccccc32)n1	9%
CCC1=C(OC(=O)N(CC)CC)N2C(=O)OC(=NCCc3c[nH]c4ccccc34)[C@]2(C)[C@H]2C1=CC[C@H]1C(=O)N(CC)C(=O)[C@H]12	-7%
CNC(=O)c1ccc2snnc2c1	-1%
CCc1c(C)nc2[nH]nc(NC(=O)C(F)(F)F)n2c1=O	0%
Cc1ccc2c(c1)c1c(n2CC(O)Cn2c(C)nc3ccccc32)/C(=N\O)CCC1 (stereo not drawn)	-9%
COCC(=O)Nc1nc2ccc(C)cc2s1	4%
CCCCOc1ccc(C(=O)Nc2ccc(S(=O)(=O)Nc3cc(C)on3)cc2)cc1OC	1%

# The list goes on:
compound	HSD17B inhib
COc1ccc(C(=O)N2CCN(C(=O)Cc3ccccc3)CC2)cc1OC	11%
CCN(CC)CCCCOc1ccccc1OC	1%
CCOC(=O)CCN1C(=O)[C@H]2[C@H]3[C@H](O)[C@H](O)C/C(=N/OCC(C)C)[C@H]3CC[C@@H]2C1=O	4%[11.4 µM]
O=C(Nc1ccccc1Cl)N1CCN(c2ncccn2)CC1	4%
CCOC(=O)c1ccc(NC(=O)NC2CC3CCC(C2)N3Cc2nnnn2C(C)(C)C)cc1 (stereo not drawn)	9%
Cc1ccnc(N2C(=O)c3ccccc3C2Nc2ccccc2Cl)c1 (stereo not drawn)	-8%
Cc1cc(C)cc(O)c1	1%
Cc1ccc2c(c1)N(CCCC(=O)NCc1ccc3c(c1)OCO3)C(=O)CO2	3%
C=C1CC/C=C(\C)CC[C@@H]2[C@@H]1CC2(C)C	2%
COc1cc(N)ccc1NC(=O)c1cccs1	-10%
CC1Cn2c(nnc2-c2cccs2)S1 (stereo not drawn)	-1%
O=C(Cn1cnc2c(nnn2Cc2ccc(F)cc2)c1=O)NCC1CCCO1 (stereo not drawn)	8%
CCC(=O)Nc1cc(Cl)ccc1N1CCN(C(=O)CC)CC1	6%
Nc1cc(Cl)c(N)cc1Cl	7%
CCOC(=O)N1CCN(C(=O)c2ccccc2Oc2ccccc2)CC1	-5%
c1ccc2c(N3CCNCC3)nc(-c3ccc4c(c3)OCO4)nc2c1	0%
O=c1c(-c2cc(F)cc(F)c2)nc2cncnc2n1-c1ccccc1	-14%
COCCN(CCOC)c1nc(C)nc2c1nc(-c1ccccc1)n2CCCN1CCCCC1C (stereo not drawn)	25µM*
Cc1ccccc1-c1nc(NCCN2CCOCC2)c2ccccc2n1	-3%
CC(C)Nc1nc(NC(C)C)nc(C(N)=O)n1	4%
O=C(Nc1nc2ccccc2s1)C1CCCN1S(=O)(=O)c1ccc(Cl)cc1 (stereo not drawn)	2%
Cc1cc(N2CCN(c3ccccn3)CC2)n2nc(C)nc2n1	0%
COc1ccccc1NC(=O)CCC(=O)Nc1nnc(C(F)(F)F)s1	18%
c1nc2nc3c(c(N4CCOCC4)n2n1)CCCC3	17%
COc1ccc(NC(=O)CN(c2cc(C)cc(C)c2)S(=O)(=O)c2c(C)noc2C)cc1OC	7%
COc1ccc(NC(=O)CSc2nnc(Cc3cccn3C)n2-c2ccc(F)cc2)cc1	6%
CCOC(=O)Cn1ncc(-c2ccccc2)c1N	-6%
Cn1nc(C(=O)NCCN2CCOCC2)c2ccccc2c1=O	11%
COc1cc2c(cc1OC)CN(C(=O)CSc1n[nH]c(N)n1)CC2	3%
Cc1cc(NC(=O)c2noc3c2CCCC3)n(-c2ccccc2)n1	8%
CCOC(=O)c1[nH]c2ccc(OCC)cc2c1NC(=O)CN1CCN(c2ccccc2)CC1	25µM*
Cc1noc(/C=C/N(C)C)c1S(=O)(=O)N1CCCC(C(=O)NC2CCCCC2C)C1 (stereo not drawn)	-8%
Cc1sc2ncnc(OCC(=O)NCC3CCCO3)c2c1C (stereo not drawn)	-6%
CCOC(=O)N1CCN(c2c(NC3CCN(Cc4ccccc4)CC3)c(=O)c2=O)CC1	7%
COC(=O)c1c(O)ccc(Oc2ccccc2)c1C(=O)OC	158%[activator]
CCOc1ccccc1NC1c2ccccc2C(=O)N1Cc1ccco1 (stereo not drawn)	-24%
CCCCn1ccnc1C(=O)c1cccc(S(=O)(=O)N2c3ccccc3CC2C)c1 (stereo not drawn)	5%
Cc1cc(CCN2CCC(=O)NC2=O)ccc1OC(C)C	9%
Cc1cccc(-c2nnc(SCC#N)n2Cc2ccccc2)c1	-8%
COc1cc(NC(=O)C2CCCN2S(=O)(=O)c2cccc3cccnc23)cc(OC)c1OC (stereo not drawn)	-2%
COc1cccc(NC2=CC(=O)CC(C)(C)C2)c1	-1%
O=C(c1ccncc1)N1CCC2(CCCN(c3cccc(-c4ccccc4)c3)C2)CC1	-6%
Cc1oc(/N=C/c2ccc(Cl)cc2Cl)c(C#N)c1C	5%
O=c1c(CCc2ccccc2)nc2cncnc2n1Cc1ccc(F)cc1	-1%
O=C(c1csnn1)N1CCC2(CCCN(c3ccncc3)C2)CC1	4%
COc1ccc(OC)c(-n2c(N)c(C(=O)NCC3CCCO3)c3nc4ccccc4nc32)c1 (stereo not drawn)	25µM*
O=C(Cn1cnc2ccccc2c1=O)c1c[nH]c2ccccc12	-5%
C1CCC(n2nnnc2CN2CCCC2)CC1	1%
Cc1ccc(SCCCCN2C(=O)NC(C)(C)C2=O)cc1	-2%
CCC(C)(C(=O)NC1CCCC1)N(C(=O)CNC(C)=O)c1ccccc1 (stereo not drawn)	3%

# (continued)
compound	HSD17B inhib
O=C(C1CCN(c2ncnc3c2sc2cccc(F)c23)CC1)N1CCOCC1	-27%
CC(=O)N1CC=CC1(CC(C)C)C(=O)NCCc1c[nH]c2ccccc12 (stereo not drawn)	21%
CCS(=O)(=O)N1CCC(C(=O)NCCC2=CCCCC2)CC1	-2%
CCn1cc(C(=O)O)c(=O)c2cc(S(=O)(=O)N(C)C)ccc21	-10%
COc1ccc2nc(C)c3cc(C)oc3c2c1	-12%
COC(=O)C1C2C=CC3(CN(C(C)C)C(=O)C13)O2 (stereo not drawn)	4%
COc1ccc(NC(=O)CCS(=O)(=O)c2ccc3c(c2)CCCN3C(C)=O)cc1	1%
Cc1ccc2[nH]c3nc(SCCN4CCOCC4)nnc3c2c1	-6%
CN1CCN(CCC(=O)Nc2ccccc2Cl)CC1	-11%
Cn1c(CCCOc2ccc(Cl)cc2Cl)nnc1SCC(=O)Nc1nccs1	5%
Cc1ccc(C(=O)CSc2nc3cccnc3n2C)cc1	-2%
O=C(NCCc1c[nH]c2ccccc12)C(F)(F)C(F)F	0%
O=c1cc(N2CCOCC2)[nH]c(=O)n1C1CCCCC1	-6%
O=C(CC1CCCC1)Nc1nc2ccccc2[nH]1	11%
O=C(c1cccc(C(F)(F)F)c1)N1CCCCCC1	-5%
c1ccc(OCCSc2nnnn2-c2ccccc2)cc1	-5%
OCc1cn(-c2ccccc2)nc1-c1ccc(-c2nn(-c3ccccc3)cc2CO)cc1	?
O=C1N(CN2CCN(c3cccc(Cl)c3)CC2)c2ccccc2C12OCCCO2	1%
CCSc1ccc2nnc(-c3cccc(F)c3)n2n1	?
O=C(Nc1ccc(Cl)c(Cl)c1)Nc1cc(C(=O)N2CCOCC2)ccc1N1CCCCC1	8%
N#Cc1cccc(Cn2nnc(-c3ccccc3)n2)c1	-7%
Cc1onc(-c2c(Cl)cccc2Cl)c1C(=O)Nn1cnnc1	3%
COc1ccc(CN2CCN(C(=O)c3ccco3)CC2)cc1	-1%
CN=C(C)C1=C(O)C(C(=O)OC)C(C)(C)CC1=O (stereo not drawn)	7%
CCCC(=NCC(=O)O)C1=C(O)C(C(=O)OC)C(C)(C)CC1=O (stereo not drawn)	3%
CCOC(=O)N1CCN(C(=O)CN2C(=O)COc3ccc(C)cc32)CC1	-1%
CC(C)n1nc(C(=O)OCC(=O)N(C)C2CCS(=O)(=O)C2)c2ccccc2c1=O (stereo not drawn)	9%
CCn1nnnc1SCC(=O)Nc1nc(-c2cccs2)cs1	-3%
Cn1nnc(-c2ccc(OCc3ccccc3F)cc2)n1	-6%
Cc1coc2c(C)c3oc(=O)c4c(c3cc12)CCCC4	-24%

# Part of the list above, with each value named:
canonical_smiles: COc1ccc2nc(C)c3cc(C)oc3c2c1
  HSD17B inhib = -12%

canonical_smiles: COC(=O)C1C2C=CC3(CN(C(C)C)C(=O)C13)O2 (stereo not drawn)
  HSD17B inhib = 4%

canonical_smiles: COc1ccc(NC(=O)CCS(=O)(=O)c2ccc3c(c2)CCCN3C(C)=O)cc1
  HSD17B inhib = 1%

canonical_smiles: Cc1ccc2[nH]c3nc(SCCN4CCOCC4)nnc3c2c1
  HSD17B inhib = -6%

# (continued)
compound	HSD17B inhib
O=c1c2ccccc2nnn1CSc1nnc(-c2ccco2)o1	4%
O[C@@H](C1=C/C(=C\c2ccncc2)c2ccccc21)c1ccncc1	-3%[11.4 µM]
CS(=O)(=O)N1CCC[C@@]2(CCN(Cc3ccccc3)C2)C1	2%
COCc1ccc2oc(C(=O)O)cc2c1	14%

# Not all compounds are listed; count on the stated rates, not on these rows.
